High-throughput results from PubChem BioAssay.
Six1-Eya2 inh: inhibitors of human Six1/Eya2 interaction | Q15475+O00167 | AlphaScreen GST-Six1/His-Eya2 binding, biochemical; stronger effect = lower value; control for the full effect not named in the record | activity change, % (concentration not given with the values) | actives 0.56% (n = 360,000) | AID 651725; in the data active = activity change below about -65%; inconclusive = about -30% to -65%; inactive = above about -30%; note: % is set by controls: 0 for no effect and ±100 for the full control effect
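Six1/Eya2 binding was read as AlphaScreen signal after compounds were pinned into GST-Six1 plus His-tagged Eya2 (5X stock 250/500 nM) in pH 8.0 Tris/NaCl/TCEP buffer, beads added, then incubated 1 h, 37 C, dark.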
D2 agonist: human D2 receptor agonism in beta-arrestin assay; activation, % (concentration not given with the values); DiscoveRx PathHunter D2 beta-arrestin, luminescence, 90 min; 100% = 57 uM dopamine signal; actives 0.084% (n = 360,000); AID 624465; in the data active = activation above about 40%; inconclusive = about 15% to 40%; inactive = below about 15%; note: compound concentration not given in the record; the text of the record calls up to 30% inactive
Target sequence (P14416 whole entry, looked up): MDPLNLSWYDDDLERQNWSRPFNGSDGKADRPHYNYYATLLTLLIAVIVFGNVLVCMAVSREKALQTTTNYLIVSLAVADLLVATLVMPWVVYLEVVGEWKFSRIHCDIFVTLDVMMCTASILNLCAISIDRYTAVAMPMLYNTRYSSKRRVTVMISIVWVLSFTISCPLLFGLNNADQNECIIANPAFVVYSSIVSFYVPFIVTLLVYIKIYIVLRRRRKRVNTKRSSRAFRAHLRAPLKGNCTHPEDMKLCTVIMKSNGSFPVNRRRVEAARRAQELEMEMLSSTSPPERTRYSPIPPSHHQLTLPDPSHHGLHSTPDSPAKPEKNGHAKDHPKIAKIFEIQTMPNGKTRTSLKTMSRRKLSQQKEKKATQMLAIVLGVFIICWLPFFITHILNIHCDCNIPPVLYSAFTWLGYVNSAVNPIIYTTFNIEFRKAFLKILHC
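DiscoveRx PathHunter D2 beta-arrestin cells (2,100/well) attached overnight, then compound-stimulated 90 min at 37 C in HBSS/10 mM HEPES/0.1% Tween-20 buffer; beta-galactosidase complementation read by luminescence after 1 h at ambient temperature. Dopamine 57 uM final (EC100) as control.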
gsp antagonist: antagonizes gsp, the McCune-Albright syndrome mutation. gsp-mutant cells, cAMP HTRF, 30 min; control for the full effect not named in the record. Potency, µM (top dose mostly 76.9 µM), for the others: at the highest dose activity change, negative = inhibition, actives largely listed as inhibitors. actives 0.4% (n = 340,000). AID 624288; active = falling curve of any shape with a large fitted effect; inconclusive = falling curve, mostly with a smaller effect; inactive = flat or rising curve; cell line not stated here;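 note: intracellular cAMP measured with PDE inhibitor Ro 20-1724 present during compound exposure; potency is the fitted concentration of half-maximal effect; % is set by controls: 0 for no effect and ±100 for the full control effect; nearly all actives have a fitted effect of over 65% in size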
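Measurement of cellular cAMP by homogeneous time-resolved fluorescence following a 30 min compound exposure at 37C. The PDE inhibitor […] was present throughout; the assay buffer was DPBS with 0.05% BSA and 0.005% Tween 20.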
D2 potentiator: human D2 receptor positive allosteric modulation; P14416; AID 624464; actives 0.23% (n = 360,000); potentiation, % (no concentration beside the values); DiscoveRx D2 beta-arrestin cells, luminescence, 90 min; 100% = 57 uM dopamine signal; active = potentiation of 50% or more; inconclusive = 30% to 50%; inactive = 30% or less;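 note: compound concentration not given in the record; tested on top of an EC20 dose of dopamine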
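D2 cells co-treated with compound plus 50 nM dopamine (EC20) for 90 min at 37 deg C to detect potentiation. Beta-arrestin recruitment was read as enzyme-fragment luminescence after 1 h at ambient temperature. Full response was set by 57 uM dopamine.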
gsp agonist: gsp mutant agonism; actives 0.13% (n = 340,000); gsp mutant cells, cAMP HTRF, 30 min; control for the full effect not named in the record; Potency, µM (top dose mostly 76.9 µM), for inactives: at the highest dose activation (cAMP increase), usual class: activators; active = well fitted activation curve with a large enough effect; inconclusive = small, poorly fitted or top-dose-only effect, or another doubt; inactive = no such curve, though single readings can be large or run the other way; cell line not stated here;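 note: phosphodiesterase inhibitor Ro 20-1724 added with compounds to block cAMP breakdown; potency is the fitted concentration of half-maximal effect; nearly all actives have a fitted effect of over 60% in size; about a fifth of the inactives were tested at one dose only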
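Cells in DMEM/10% FBS with G418 were pretreated with compounds in DMSO plus […] (300 uM stock) for 30 min at 37C. cAMP was measured by HTRF (cAMP-d2 plus anti-cAMP antibody-K) after 30 min at room temperature.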
CtBP-E1A inh: CtBP/E1A binding inhibition | AID 651724 | activity change, % (no concentration beside the values) | actives 0.49% (n = 340,000) | AlphaScreen GST-E1A/His-CtBP binding, 1536-well; stronger effect = lower value; control for the full effect not named in the record; in the data active means activity change below about -65%; inconclusive means about -30% to -65%; inactive means above about -30%; note: % is set by controls: 0 for no effect and ±100 for the full control effect; compound concentration not given in the record
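Homogeneous bead-based format: GST-tagged E1A captured on glutathione donor beads, His-tagged CtBP on nickel acceptor beads; compounds precede bead addition by 2 h at 37 °C.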
Starred values were filed as active, the others as inactive; ? = inconclusive; . = no result given; & = joins results of further samples; [ ] = another dose, or the depositor's remark.

SMILES	Six1-Eya2 inh	D2 agonist	gsp antagonist	D2 potentiator	gsp agonist	CtBP-E1A inh
CCN1C(=O)CC(c2ccccc2)N(C2CCCC2)c2nc(Nc3ccc(C(=O)NC4CCN(C)CC4)cc3OC)ncc21 (stereo not drawn)	-13	-6.4	-20%	-14	-11%	-5
COc1ccc(C(=O)Nc2ccc3c(c2)OCO3)cc1S(=O)(=O)N1CCOCC1	?	-2.4	.	-9	?	-11
COc1cccc(-c2nc(CS(=O)(=O)CC(=O)N3CCc4ccccc4C3)c(C)o2)c1	5	-7.7	0%	-4	-32%[inhibitor]	-1
CCc1ccc2[nH]c3nc(SCc4nnc(-c5ccc(C)cc5)o4)nnc3c2c1	11	-4.6	8%	-5	-7%	2
CC(C)Nc1nc(NC(C)C)nc(N(C)N)n1	?	-4.1	9%	-42	-26%	?
NS(=O)(=O)c1ccc2c(c1)C1C=CCC1C(C1CC=CCC1)N2 (stereo not drawn)	-9	4.3	-9%	?	?	-11
COc1cc(NC(=O)c2cc3ccccc3o2)c(OC)cc1Cl	14	-0.6	10%	-28	29%	4
O=C1CSC(c2cccnc2)N1c1ccc(F)cc1 (stereo not drawn)	3	2.0	0%	2	-34%	1
CCN(C(=O)CN1C(=O)S/C(=C\c2cccc(OC)c2)C1=O)C1CCS(=O)(=O)C1 (stereo not drawn)	4	-2.9	-1%	-2	4%	2
O=C(c1cnn2c(C(F)(F)F)cc(-c3ccco3)nc12)N1CCCCCC1	-2	-5.3	6%[15.4 µM]	-18	2%	-2
COc1cc(/C=C/CN2CCC(Oc3ccc(C(=O)N4CCCC4)cc3)CC2)ccc1O	0	-2.3	-4%	-22	24%	-11
CCc1c(C(=O)Nc2ccccc2)c(C)[nH]c(=S)c1C#N	-1	0.2	5%	-30	13µM*	8
O=C(Nc1nc(OCCN2CCCC2=O)cnc1/C=C\c1ccccc1)c1cc2ccccc2s1	-8	-4.2	.	-8	.	-9
CCOc1ccc(C(=O)Nc2cnn(Cc3ccc(Cl)c(Cl)c3)c2)cc1	-1	5.5	?	-4	-43%[inhibitor]	-7
CCOc1ccc(NS(=O)(=O)c2ccc(NC(=O)[C@@H]3CCCC[C@@H]3C(=O)O)cc2)cc1	0	-0.3	0%	-6	-35%[inhibitor]	-2
O=C(NNC1=C(C(=O)C(F)(F)F)CCC1)c1ccccc1O	-9	-5.4	4%	-45	-65%[inhibitor]	-13
CC(=O)NCC(=O)N[C@@H](CC(=O)OCc1ccccc1)C(=O)OCc1ccccc1	-1	-4.4	1%	-17	-5%	.
Cc1cnc(CNC(=O)C2CCC(=O)N(CCc3ccc(Cl)cc3)C2)cn1 (stereo not drawn)	1	-2.2	9%	-1	?	6
COc1ccccc1N1CCN(CC(=O)Nc2cc(F)ccc2C)CC1	-23	-0.8	-2%	-32	-3%	-10
Cc1cc(C)n(CC(=O)NCc2cc(-c3nn(C)c(=O)c4ccccc34)ccc2C)n1	-6	-2.0	-5%	-5	-9%	-1
Cc1noc(NS(=O)(=O)c2ccc(NC(=O)CCN3C(=O)c4ccccc4C3=O)cc2)c1C	2	-2.4	-5%	-4	1%[15.4 µM]	0
COc1ccc(N2CC(NC(=O)N(C)CCC#N)CC2=O)cc1 (stereo not drawn)	13	-5.8	9%	-8	8%	3
Cc1ccc([N+](=O)[O-])c(NC(=O)COC(=O)C2CC3CCCC(C2)C3=O)c1C (stereo not drawn)	3	-1.0	5%	-11	6%	4
COc1cc(C)c(Cl)cc1S(=O)(=O)N1CCCC1	18	1.4	4%	6	?	-18
Cc1ccc(C#N)c(SCc2cccc(Br)c2)n1	7	0.0	-5%	7	-22%	.
CC(CC(=O)NNC(=O)c1cccc(Cl)c1)c1ccccc1 (stereo not drawn)	-7	-3.5	10%	-7	-19%[15.4 µM]	1
CC(C)c1ccc(S(=O)(=O)NC2CCS(=O)(=O)C2)cc1 (stereo not drawn)	13	-2.5	4%	-17	-12%[15.4 µM]	-2
O=C(O)C(Cc1ccccc1)N1C(=O)/C(=C/c2ccccc2)SC1=S (stereo not drawn)	0	-1.4	-2%	4	9%	0
CCOC(=O)c1ccc(NC(=S)NCCc2ccc(OC)c(OC)c2)cc1	-5	0.4	-15%	-1	15%[15.4 µM]	-3
Nc1nnc(CC(c2ccccc2)c2ccccc2)s1	2	-1.4	-11%	-5	-10%	-3
CN(CC(=O)Nc1ccc(Cl)c(Cl)c1)C(=O)C1CCCC1	6	-3.0	-6%	-22	18%	.
Cc1c(C=O)cnn1CCC(=O)O	8	-1.2	3%	-11	?	15
CC(C)CN1Cc2ccccc2Oc2cc(Br)ccc2S1(=O)=O	0	-2.3	-10%	-4	.	2
Cc1cccc(-c2noc(CSc3ccccc3)n2)c1	8	0.4	-4%	-22	5%	59
Cc1cc(C(=O)N2CCC2(C)C(=O)O)nn1C(C)(C)C (stereo not drawn)	9	-3.1	.	-3	.	5
CC1CCN(c2ccc(S(=O)(=O)NC3=NCCCCC3)cc2[N+](=O)[O-])CC1	-6	-4.5	-11%	-11	25%[15.4 µM]	-4
COc1ccc(OCC(=O)c2c[nH]c3ccccc23)cc1	-10	-1.1	-5%	-20	-4%[15.4 µM]	0
CCOc1cccc2sc(Cl)nc12	-4	-1.0	-10%	-8	-8%[15.4 µM]	-20
O=C(NCCC1CCCCN1S(=O)(=O)c1ccc(F)cc1)C(=O)NCCN1CCOCC1 (stereo not drawn)	-1	3.2	12%	11	-3%[15.4 µM]	2
COC(=O)c1ccc(COc2ccc3ccc(=O)oc3c2)o1	1	-1.4	0%	-10	9%	0
Cc1cc(C)cc(NC(=O)C(OC(=O)c2ccc(O)cc2)c2ccccc2)c1 (stereo not drawn)	0	-1.4	-20%	-6	3%	-6
CCOc1ccc(CCNC(=O)C2CCCN(S(=O)(=O)N3CCOCC3)C2)cc1OCC (stereo not drawn)	0	-1.2	9%	0	-46%[inhibitor]	2
O=C(/C=C/c1ccc(Cl)cc1)NC(=S)Nc1ccc(N2CCOCC2)c(Cl)c1	-1	2.4	-7%	27	23%	1
N#Cc1ccc(Oc2ccc(C(F)(F)F)cc2NC(=O)c2ccc(F)cc2)cc1	10	-3.6	3%	-1	2%	17
COCCNC(=S)Nc1ccc2nc(N3CCOCC3)cc(C)c2c1	-11	6.2	-4%	-9	-17%	23
CC1(c2ccccc2Cl)NC(=O)N(CC(=O)c2ccc3c(c2)OCO3)C1=O (stereo not drawn)	4	-2.0	9%	5	5%[15.4 µM]	-5
CCn1cc([C@@H]2C[C@H]3CN(Cc4cccc(Cl)c4)C(=O)[C@]34CCCN24)cn1	3	-3.7	-5%	-3	18%[15.4 µM]	5
Cc1c(C)n(C(=O)CSc2nc3ccccc3[nH]2)c2ccccc12	-9	2.0	-10%	3	5%	-14
CCOC(=O)NC(=O)CSc1nnnn1-c1ccc(Cl)cc1	2	2.2	5%	-14	-13%	1
O=C1CC(c2ccccc2)=Nc2ccc(Br)cc2N1	2	-5.6	.	-17	-1%[15.4 µM]	-19
CCOc1ccc(NC(=O)N2CCC(c3nc4ccccc4o3)CC2)cc1	-2	-3.6	-9%	-10	-1%	-13
O=C(COC(=O)c1cc(NS(=O)(=O)c2cccs2)ccc1O)Nc1cc(Cl)ccc1Cl	8	-3.2	6%	-10	-61%[inhibitor]	.
N/C(=N\OC(=O)c1cccc(Cn2cc(C(F)(F)F)ccc2=O)c1)c1ccccc1	6	?	-17%	21	10%	.
O=C(COc1ccc(Cl)cc1Cl)N1CCN(c2ccccn2)CC1	-3	-1.5	0%	-3	-1%	0
COc1ccc(NC(=O)C2CCC(CNc3c(N4CCCCC4)c(=O)c3=O)CC2)cc1OC (stereo not drawn)	-5&3	1.3&-2.5	6%&3%	-9&-9	-16%&-27%	2&-1
CN(C1CCS(=O)(=O)C1)S(=O)(=O)c1ccc(C2CCCCC2)cc1 (stereo not drawn)	1	1.4	-12%	-4	31%	5
COc1cc(C(=S)N2CCOCC2)cc(Br)c1OS(=O)(=O)c1ccccc1	-21	-3.1	-21%	-3	-38%[inhibitor]	-18
CCCCC(=O)Nc1ccc(F)c(Cl)c1	9	1.0	8%	-12	16%	14
O=[N+]([O-])c1ccccc1OCCCCN1CCCCC1	4	-1.8	13%	-18	16%	0
CCCc1cc(=O)[nH]c(Nc2ccc3c(c2)OCCO3)n1	-6	5.1	0%	-4	-19%	-2

The last 4 entries of the part before come first, to join the parts.
SMILES	Six1-Eya2 inh	D2 agonist	gsp antagonist	D2 potentiator	gsp agonist	CtBP-E1A inh
COc1cc(C(=S)N2CCOCC2)cc(Br)c1OS(=O)(=O)c1ccccc1	-21	-3.1	-21%	-3	-38%[inhibitor]	-18
CCCCC(=O)Nc1ccc(F)c(Cl)c1	9	1.0	8%	-12	16%	14
O=[N+]([O-])c1ccccc1OCCCCN1CCCCC1	4	-1.8	13%	-18	16%	0
CCCc1cc(=O)[nH]c(Nc2ccc3c(c2)OCCO3)n1	-6	5.1	0%	-4	-19%	-2
COc1ccc([C@@H]2CC(=O)c3c(O)cc(O[C@@H]4OC(CO[C@@H]5OC(C)[C@H](O)[C@H](O)C5O)[C@@H](O)[C@@H](O)C4O)cc3O2)cc1O (stereo partly drawn)	12	-4.7	1%	0	.	1
N#C/C(=C\c1ccc(Sc2ccc(Cl)cc2)o1)c1nc2ccccc2[nH]1	1	10	1%	16	-7%	-1
O=C(C[C@H]1C/C=C\CCC(=O)OC[C@H]2CCCN2C1=O)NCCO	0	-0.7	8%	-2	.	2
CSc1nc2ncc(-c3ccsc3)c(N)n2n1	-3	-17	-1%	1	7%[15.4 µM]	.
CCOC(=O)C1(C)NC(c2cccs2)C2C(=O)N(c3ccccc3)C(=O)C21 (stereo not drawn)	-7	-1.3	1%	-3	9%[15.4 µM]	-3
O=C(Cc1ccccc1)N1CCN(c2ccc([N+](=O)[O-])cc2)CC1	3	3.9	-14%	5	-6%	4
COc1ccc(-c2[nH]ncc2CN2CCN(c3ccccn3)CC2)c(OC)c1	0	9.9	11%	5	4%	3
Cc1ccc(C)c(N2CCN(c3cnn(-c4nc5ccccc5s4)c(=O)c3Cl)CC2)c1	2	-0.6	2%	-9	3%	-17
CCCN1CCC2(CC1)NC(C(=O)O)Cc1c2[nH]c2ccccc12 (stereo not drawn)	1	1.2	4%	0	-29%	-2
COc1cccc(C(=O)Nn2c(C)nnc2-n2nc(C)cc2C)c1	4	-0.2	10%	-8	-54%[inhibitor]	3
CC(=O)c1nc2ccccc2n1CCc1ccccc1	15	-5.2	-1%	-2	?	17

Not a hit list (roughly 1.4% active in at least one column).
